# Source: PubChem
# Ecoli rRNA inh: reduced GFP signal of wild-type E. coli, primary screen, bacterial rRNA inhibitor project, GFP/RFP fluorescence, OD600, single point. E. coli WT GFP vs humanized-ribosome RFP mutants, 24 h; hits give low values; DMSO median 0, no signal -100. GFP signal change (wild-type ribosome), % (no concentration beside the values). 350,000 tested, 1.6% active;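 active = significant combined selectivity score with lowered wild-type GFP, culture density cut under 30%, mutant RFP and density less affected; inactive = any of these conditions unmet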; also: one replicate is shown; some compounds called inactive have numbers as strong as hits
# HNF4A DNA FP: change in binding of human HNF4A to DNA, primary screen, biochemical, fluorescence polarization, FITC-DNA; 1 h; AID 1224865, 2016; 360,000 tested, 0.3% active; activity change, % at 10 µM; Hepatocyte nuclear factor 4-alpha (Homo sapiens), P41235; in the data active = activity change above about 30%, passing the limit was not always enough;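 also: controls were the assay level and a saturating level of protein; the project sought stronger binding though the title names inhibitors; some compounds called inactive have numbers as strong as hits; positive values seem to mean higher polarization but the record does not say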
# Target sequence (P41235 whole entry, looked up): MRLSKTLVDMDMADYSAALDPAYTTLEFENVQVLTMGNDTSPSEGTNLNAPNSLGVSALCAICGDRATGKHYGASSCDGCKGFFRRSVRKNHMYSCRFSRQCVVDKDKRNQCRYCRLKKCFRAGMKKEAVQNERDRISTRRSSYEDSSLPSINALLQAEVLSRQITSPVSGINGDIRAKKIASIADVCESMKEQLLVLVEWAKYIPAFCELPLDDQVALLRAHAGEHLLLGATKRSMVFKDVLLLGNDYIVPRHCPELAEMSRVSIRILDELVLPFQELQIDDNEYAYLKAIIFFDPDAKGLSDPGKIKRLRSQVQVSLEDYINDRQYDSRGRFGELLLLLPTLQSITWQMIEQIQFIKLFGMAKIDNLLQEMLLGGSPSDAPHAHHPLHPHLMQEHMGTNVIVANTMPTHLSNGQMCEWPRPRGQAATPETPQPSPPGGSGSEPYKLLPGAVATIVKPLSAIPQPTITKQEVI
# ALR inh: inhibitors of human ALR sulfhydryl oxidase, primary screen, biochemical, H2O2 detection, HRP-luminol luminescence, single point. AID 485317, 2010. 290,000 tested, 3.8% active. FAD-linked sulfhydryl oxidase ALR (Homo sapiens), P55789. purified ALR, DTT oxidation. inhibition, % (test concentration not listed);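 active = mean and each replicate at 75% or more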;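 also: stock transfer was 7.5 nL into about 7.5 µL; 0% = neutral wells and 100% = wells with inactivated enzyme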
# Beta2AR agonist: beta2AR agonists driving receptor internalization, primary screen, cell-based, FAP fluorogen, flow cytometry. AID 504454, 2011. 340,000 tested, 0.43% active. response, % (test concentration not listed). Am2.2-beta2AR cells; reference of the scale not given here. Beta-2 adrenergic receptor (Homo sapiens), P07550;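 active = response above a set limit, near 3 SD of response in nonfluorescent compounds, cut at about 42% in these data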;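 also: stock transfer was 100 nL into about 11 µL; a reference agonist was the positive control; negative values mostly stem from fluorescent compounds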
# FGF22 binding: binders of human FGF22 protein, primary screen, FGF22 synaptogenesis inhibitor project, biophysical, thermal shift, single point; calls only at 9.99 µM; 340,000 tested, 1.5% active; Fibroblast growth factor 22 (Homo sapiens), Q9HCT0; recombinant FGF22 thermal shift, SYPRO orange fluorescence; percent of sucrose octasulfate shift, DMSO zero;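 active = melting point raised past a set limit in the mean and every replicate; three in four hits are not shown here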
# Target sequence (Q9HCT0 whole entry, looked up): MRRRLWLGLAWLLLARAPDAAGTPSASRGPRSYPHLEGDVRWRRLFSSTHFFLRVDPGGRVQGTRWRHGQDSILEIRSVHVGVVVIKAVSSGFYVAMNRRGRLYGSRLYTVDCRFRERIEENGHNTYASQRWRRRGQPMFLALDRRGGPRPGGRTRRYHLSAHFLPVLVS
# UCH37 DUB inh: inhibitors of human UCH37 deubiquitinase, primary screen, biochemical, Ub-AMC cleavage, fluorescence; purified proteasome/UCH37; inhibition, % (no concentration beside the values); 330,000 tested, 0.33% active; AID 588478, 2011; Ubiquitin carboxyl-terminal hydrolase isozyme L5 (Homo sapiens), Q9Y5K5;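 active = mean of two replicates above 20%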;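 also: 0% = compound-free wells with enzyme and 100% = wells lacking proteasome; stock transfer was 100 nL into about 20 µL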
# Target sequence (Q9Y5K5 whole entry, looked up): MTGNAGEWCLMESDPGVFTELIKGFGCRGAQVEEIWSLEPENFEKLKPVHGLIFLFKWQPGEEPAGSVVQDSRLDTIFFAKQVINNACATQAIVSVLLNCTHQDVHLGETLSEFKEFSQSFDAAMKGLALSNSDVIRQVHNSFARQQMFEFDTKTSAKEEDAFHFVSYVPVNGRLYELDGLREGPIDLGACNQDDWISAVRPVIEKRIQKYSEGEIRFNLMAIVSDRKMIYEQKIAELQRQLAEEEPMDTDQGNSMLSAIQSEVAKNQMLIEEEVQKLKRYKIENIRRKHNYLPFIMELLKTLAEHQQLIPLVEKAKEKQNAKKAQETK
#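 Assay system: Proteasome-bound UCH37. Buffer or medium: pH 7.4 Tris-HCl (50 mM) with ovalbumin, ATP-MgCl2, DTT. Incubation: 30 min preincubation with enzyme, 25 min cleavage at room temperature. Measured by: fluorescence, ex 355 nm, em 460 nm. Read-out basis: percent inhibition. Control set: wells without proteasome as full block, compound-free enzyme plus substrate as uninhibited.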
# E coli growth: E. coli growth inhibition, primary screen, OD600; Escherichia coli growth, 23 h; hits give low values; OD600 absorbance (no concentration beside the values); 330,000 tested, 0.21% active; AID 1053175, 2014;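 active = OD600 absorbance below the run mean of sample wells minus 3.6 SD, in any replicate, cut at about 0.56 in these data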;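 also: stock transfer was 300 nL into about 60 µL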
# Ecoli rRNA inh OD600: second read-out of Ecoli rRNA inh, no call of its own (marks repeat the call); OD600 change, %; measured here: OD600 growth;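 optical density of the mix in the first replicate; 0 = DMSO median and -100 = no signal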
# Ecoli rRNA inh RFP: also measured in Ecoli rRNA inh; calls as there; RFP signal change, %; measured here: RFP humanized mutant strains;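 first replicate; 0 = DMSO median and -100 = no signal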
# Active calls of the source: *; i = inactive; / = no result given; & = joins results of further samples. An excerpt (hit frequency here may not be typical).
SMILES,Ecoli rRNA inh,Ecoli rRNA inh OD600,Ecoli rRNA inh RFP,HNF4A DNA FP,ALR inh,Beta2AR agonist,FGF22 binding,UCH37 DUB inh,E coli growth
CC(C)c1[nH]nc2c1C(c1cccnc1)C(C#N)=C(N)O2 (stereo unspecified),/,/,/,1.9,7.9,2.2,/,4.1,0.723
O=C(CCc1ccccc1)NC(=S)Nc1cccc(Br)c1,/,/,/,1.4,-3.0,-6.5,/,3.9,0.666
COc1cccc(C(=O)N2[C@H](COCc3ccccc3)C=CS2(=O)=O)c1,-4.9,-7.6,-1.0,-0.2,/,/,i,/,/
CCN(C(=O)c1ccc(NC(C)=O)cc1)c1ccccc1,/,/,/,0.9,-5.4,-13.7,/,5.8,0.765
COc1ccccc1C(c1nnnn1C1CCCC1)N1CCN2CCCC2C1 (stereo unspecified),/,/,/,-0.3,1.6,0.7,/,4.9,0.728
Cc1ccccc1NC(=O)Cn1nc(C(F)(F)F)cc1C1CC1,/,/,/,-1.6,-7.0,-1.6,/,2.2,0.669
CCOCCCNC(=O)C1CCN(S(=O)(=O)N2CCCCC2)CC1,/,/,/,-3.0,-7.9,17.0,/,0.3,0.662
O=C(Cc1coc2ccc3ccccc3c12)Nc1nnc(C2CC2)s1,/,/,/,-1.1,/,0.0,/,-13.7,0.724
CCCCN1C2CCCC1CC(NC(=O)c1cccc(OC)c1)C2 (stereo unspecified),7.9,3.2,0.7,1.7,/,-5.3,i,0.8,0.678
CCN(CC)S(=O)(=O)c1ccc(C)c(NC(=S)NC2CCCCC2)c1,-7.4,-13.2,2.0,2.9,0.7,-6.4,i,1.4,0.647
COc1ccc2cc(C(=O)Nc3ccc(S(N)(=O)=O)cc3)sc(=O)c2c1OC,1.4,-7.1,1.0,-1.9,-2.5,10.1,i,0.1,0.74
CC(=O)Cc1nsc(NC(=O)c2ccc(-c3ccc(Cl)c(C(F)(F)F)c3)o2)n1,/,/,/,/,14.1,/,/,-2.8,0.691
COc1ccc(-c2csc(Nc3cc(C)ccn3)n2)cc1OC,-6.2,-9.8,0.8,6.6,-2.3,16.7,i,0.9,0.66
NCCCC[C@H]1CNC(=S)N1CC1CCCCC1,18.1,8.5,6.2,0.9,-15.5,-5.2,i,-2.2,/
COc1ccc(CN2CCSCC2)c(OC)c1C,4.0,4.6,-0.4,1.7,-10.0,-1.5,i,4.6,0.627
CCN1CCN(C(=O)c2cn(CCOC)c(=O)c3c2c2ccccc2n3C)CC1,/,/,/,2.5,/,-1.4,/,-88.0,0.715
CCOc1ccc2nc(NC(=O)C3CSC4(C)CCC(=O)N34)sc2c1 (stereo unspecified),-1.1,-19.9,8.1,-1.1,-0.8,-4.2,i,3.5,0.697
O=C(CN1C(=O)c2ccc([N+](=O)[O-])cc2C1=O)NCc1ccc(C(=O)O)cc1,-1.6,5.8,-1.7,-0.8,/,1.0,i,5.2,0.668
CCOC(=O)C1CCN(C(=O)C(=O)N2CCC(C(=O)OCC)CC2)CC1,/,/,/,-1.3,0.2,7.0,/,5.1,0.705
Cc1ccnc(Nc2nc(-c3ccc(O)c(O)c3)cs2)c1,-30.3,-46.2,-10.1,-2.3,98.3*,1.9,i,/,/
COc1cc(/C=C(\C#N)c2ccccn2)ccc1OCC(=O)Nc1c(Cl)cccc1Cl,/,/,/,1.4,-2.9,-23.8,/,-71.3,0.675
CN(C)CCN(C)C1CN(Cc2ccccc2)S(=O)(=O)C1 (stereo unspecified),-4.2,5.2,-8.8,0.9,/,/,i,/,/
COc1ccccc1CNS(=O)(=O)c1ccc2c(c1)CC(=O)N2C,9.4,-6.0,1.9,0.3,-1.5,-5.8,i,2.1,0.692
Oc1ccccc1C=NCCN1CCN(CCN=Cc2ccccc2O)C1c1ccccc1O (stereo unspecified),8.6,14.6,3.1,0.1,/,-3.8,i,2.4,0.649
CCOC(=O)c1ccc(NC(=O)N2CCCCCC2)cc1,-7.6,-13.3,-1.8,0.3,-2.7,1.5,i,2.6,0.663
Cc1ccccc1C(=O)NCCCNC(=O)c1ccccn1,1.0,6.2,-1.0,2.1,0.7,-1.4,i,0.4,0.707
CN(Cc1nc2ccccc2c(=O)[nH]1)C(=O)c1ccc(S(=O)(=O)N2CCCC2)cc1,/,/,/,-0.4,-3.6,11.6,i,4.8,0.708
O=C(CSc1nnc(SCc2ccc(Cl)cc2)s1)c1ccc2c(c1)OCO2,/,/,/,-2.8,/,-0.8,/,22.1*,/
OC(c1ccc(Cl)c(Cl)c1)c1ncc(-c2ccccc2C(F)(F)F)[nH]1 (stereo unspecified),-38.4,-59.9,-13.4,1.7,/,/,i,/,/
O=C(NC1C(=O)NNC1c1ccccc1)c1ccc(F)cc1 (stereo unspecified),/,/,/,0.2,17.3,-2.3,/,0.0,0.734
CCCN1CCN(C(=O)Cn2c(=O)oc3cc(S(=O)(=O)NCc4ccccc4)ccc32)CC1,4.9,8.3,-0.4,-5.4,-0.3,6.5,i,1.8,0.711
CC(C)CC(c1nc2ccccc2[nH]1)n1c(-c2ccccc2Br)nc2ccccc21 (stereo unspecified),-1.0,-16.8,-0.2,6.7,/,/,i,/,/
Cc1ccccc1CN(C)C[C@@H]1OCc2cnnn2CCCC(=O)N([C@H](C)CO)C[C@H]1C,-0.4&-1.7,2.1&6.1,-1.0&0.8,0.5,/,/,i,/,/
C(=N\N(c1ccccc1)c1ccccc1)/c1ccccn1,-51.0,-73.5,-12.7,2.1,-8.6,-11.9,i,/,/
COc1ccc2ccccc2c1/C=N/NC(=O)c1ccccc1F,-1.3,9.8,1.8,-1.4,/,25.8,i,/,/
c1ccc(-c2ccc(-c3[nH]ncc3CN3CCC(N4CCSCC4)CC3)cc2)cc1,9.3,2.5,8.4,0.9,/,2.6,i,3.5,0.695
COc1ccc(O)c(/C=N/NC(=O)CSc2nnc(C)n2-c2ccccc2)c1,/,/,/,-1.1,2.7,-5.0,/,/,/
O=C(CSc1ccc2nnc(CCNC(=O)c3ccccc3)n2n1)Nc1ccccc1,6.0,-3.1,-2.9,0.8,-30.1,4.8,i,5.1,0.708
Cc1sc(N/N=C/c2cccs2)nc1-c1ccccc1,/,/,/,-0.4,-0.5,-3.3,i,/,/
COc1ccc(-c2csc3ncnc(N4CCN(CCO)CC4)c23)cc1,5.1,2.3,0.0,0.6,1.5,-0.5,i,3.7,0.69
CNc1nc(C)cc(C)c1S(=O)(=O)c1ccc(C)cc1,/,/,/,-2.8,-6.8,-1.6,/,-18.7,0.772
NC(=O)c1nsc(C(=O)N(Cc2ccccc2F)C(C(=O)NCC2CCCO2)c2ccc(F)cc2)c1N (stereo unspecified),10.1,6.2,0.8,-1.8,/,3.4,i,-60.8,0.67
O=C(CN1c2cccc3cccc(c23)S1(=O)=O)NCc1ccc(Cl)cc1,0.3,0.5,-0.8,-0.6,-5.3,-1.1,i,-24.2,0.692
CCCN1C(=O)C(O)(c2c(C)[nH]c3ccccc23)c2ccccc21 (stereo unspecified),-18.3*,-9.7*,4.0*,-3.5,/,-1.3,i,4.3,0.644
CCOc1cc(C2CC(=O)c3c(ccc4ccccc34)N2)ccc1O (stereo unspecified),/,/,/,2.2,15.1,1.0,/,5.8,0.766
COc1ccccc1CNC(=O)COC(=O)c1cnc(C)cn1,3.1,11.5,-4.2,2.8,/,/,i,/,/
CCOC(=O)C1CCCN(C(=O)c2cc(C)n(C(C)(C)C)n2)CC1 (stereo unspecified),3.6,6.5,2.5,0.0,/,/,i,/,/
COc1ccc(/C=N/N2CCN(C3c4ccccc4-c4ccccc43)CC2)cc1O,/,/,/,2.2,3.0,12.4,/,/,/
Cc1cc(OCC(=O)OCC(=O)NCc2ccco2)ccc1Cl,2.3,9.2,0.0,2.2,-11.9,-4.8,i,2.4,0.681
O=C1CCC(C(=O)N2CCc3c(Cl)cccc3C2)CN1CCCN1CCOCC1 (stereo unspecified),5.4,-1.3,0.1,-2.9,-22.9,-6.3,i,0.5,0.706
CCOC(=O)C1=CN(Cc2ccco2)S(=O)(=O)NC1c1ccc(Br)cc1F (stereo unspecified),-9.0,-16.3,3.6,-3.6,/,-1.4,i,3.0,0.669
CC(Sc1nncn1C)C(=O)NCCC1=CCCCC1 (stereo unspecified),6.3,3.1,1.3,3.2,-2.3,-6.0,i,0.8,0.712
CCOc1ccc(OCC)c(NC(=O)CSc2nc3cccnc3n2C)c1,-33.0*,-13.3*,-0.6*,1.0,-11.2,-6.1,i,0.5,0.692
Cc1ccc(NC(=O)c2sc(Cl)nc2-c2ccccc2)cc1C,/,/,/,-1.9,2.4,-2.1,/,0.1,0.718
COc1ccc(OCC(=O)Nc2ccc3c(c2)nc(CCN2CCN(c4ccccn4)CC2)n3C)cc1,2.2,1.9,1.2,3.1,/,/,i,/,/
CCCOc1ccc(C(=O)NC(C)C(=O)O)cc1 (stereo unspecified),/,/,/,-4.3,-5.5,-0.5,/,-0.2,0.705
Cc1cccc(C)c1Nc1nnc(SC(C)C(=O)Nc2c(C)n(C)n(-c3ccccc3)c2=O)s1 (stereo unspecified),-2.5,1.2,-2.0,-3.0,-0.5,-11.5,i,2.9,0.695
Cc1cc(NC(=O)CSc2nc(C3CC3)nc3sc(C)c(C)c23)no1,/,/,/,1.4,-4.2,-13.5,/,-1.1,0.755
O=C(COc1ccc(Br)cc1)Nc1ccccc1C(=O)NC1CC1,-7.3,-1.0,-6.7,-0.2,17.0,2.6,i,-1.7,0.672
COc1ccccc1-c1cc(NC=O)c2ncc(-c3ccc(F)cc3)n2c1,4.2,-6.8,16.3,3.8,/,/,i,/,/
Cc1ccc(C)c(-n2c(SCC(=O)Nc3nnc(C)s3)nnc2-c2ccoc2C)c1,/,/,/,6.8,-3.5,4.9,/,1.9,0.729
COc1ccccc1NC(=O)C(C)OC(=O)CCCOc1ccccc1 (stereo unspecified),-0.9,-11.0,0.0,-3.5,2.3,-5.1,i,-0.6,0.688

# Pulled by structure from the entries so far, four records:
SMILES,Ecoli rRNA inh,Ecoli rRNA inh OD600,Ecoli rRNA inh RFP,HNF4A DNA FP,ALR inh,Beta2AR agonist,FGF22 binding,UCH37 DUB inh,E coli growth
COc1ccccc1CNS(=O)(=O)c1ccc2c(c1)CC(=O)N2C,9.4,-6.0,1.9,0.3,-1.5,-5.8,i,2.1,0.692
Oc1ccccc1C=NCCN1CCN(CCN=Cc2ccccc2O)C1c1ccccc1O (stereo unspecified),8.6,14.6,3.1,0.1,/,-3.8,i,2.4,0.649
COc1ccccc1CNC(=O)COC(=O)c1cnc(C)cn1,3.1,11.5,-4.2,2.8,/,/,i,/,/
O=C(CN1c2cccc3cccc(c23)S1(=O)=O)NCc1ccc(Cl)cc1,0.3,0.5,-0.8,-0.6,-5.3,-1.1,i,-24.2,0.692
